Beta apoptosis = inhibitors of cytokine-induced beta cell apoptosis, primary screen, luminescence; 300,000 tested, 0.8% active; INS-1E cytokine-induced death, ATP luminescence, 48 h; percent of positive-control rescue, neutral wells zero; protection from apoptosis, % (concentration not given with the values); AID 435005, 2010;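 active = all replicates at 75% or more, or half of them and the mean; inconclusive = half reach 75% but not the mean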;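 also: 0% = cytokine-treated negative control wells and 100% = positive control rescue; higher means more ATP so stronger rescue from cytokine killing; wells of about 40 µL received 100 nL stock; the first replicate is given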
Ecoli rRNA inh = reduced GFP signal of wild-type E. coli, primary screen, bacterial rRNA inhibitor project, GFP/RFP fluorescence, OD600, single point | E. coli WT GFP vs humanized-ribosome RFP mutants, 24 h; active compounds read low; DMSO median 0, no signal -100 | AID 720706, 2013 | GFP signal change (wild-type ribosome), % (concentration not given with the values) | 350,000 tested, 1.6% active;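 active = significant combined selectivity score with lowered wild-type GFP, culture density cut under 30%, mutant RFP and density less affected; inactive = any of these conditions unmet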; also: one replicate is shown; some compounds called inactive have numbers as strong as hits
ALR H2O2 inh = inhibitors of human ALR sulfhydryl oxidase, primary screen, biochemical, H2O2 detection, HRP-luminol luminescence, single point; FAD-linked sulfhydryl oxidase ALR (Homo sapiens), P55789; purified ALR, DTT oxidation; inhibition, % (no concentration beside the values); 290,000 tested, 3.8% active;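 active = mean and each replicate at 75% or more; inconclusive = only one of the two met; inactive = neither met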;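 also: stock transfer was 7.5 nL into about 7.5 µL; 0% = neutral wells and 100% = wells with inactivated enzyme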
Target sequence (P55789 whole entry, looked up): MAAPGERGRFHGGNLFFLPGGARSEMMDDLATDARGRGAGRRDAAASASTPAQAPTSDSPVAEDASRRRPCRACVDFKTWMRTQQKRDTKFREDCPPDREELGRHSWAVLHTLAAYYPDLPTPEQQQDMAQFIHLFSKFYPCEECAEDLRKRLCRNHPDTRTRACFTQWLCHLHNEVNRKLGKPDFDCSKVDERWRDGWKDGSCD
LANA-H2A inh = blockers of LANA interaction with H2A/H2B – biochemical, FP readout, HTS, primary screen; Protein LANA1 (Human herpesvirus 8 type P (isolate GK18)), Q9QR71; 320,000 tested, 0.6% active; cell-free LANA-H2A/H2B peptide, fluorescence polarization; inhibition, % (concentration not given with the values); in the data active = inhibition mostly above about 10%, no sharp cut-off; inactive = mostly below about 6.7%;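 also: stock transfer was 7.5 nL into about 10 µL; 0% = median of vehicle wells and 100% = median of positive control wells; one replicate is shown; the record names a cut of 25% in any replicate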
T cruzi inh = inhibitors of intracellular T. cruzi growth, primary screen, luminescence, NIH3T3 host cells. T. cruzi beta-gal in NIH3T3, 90 h. inhibition, % (test concentration not listed). 300,000 tested, 1.4% active;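 active = mean inhibition across valid replicates above about 55%, limit read from the data; inconclusive = mean below that limit but half or more replicates reach it; inactive = mean below it, under half of replicates reach it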;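 also: signal also drops with host cell toxicity which is not excluded here; 0% = plate median of DMSO wells and 100% = zero luminescence signal; higher percent means less beta-gal luminescence so fewer parasites; stock transfer was 50 nL into about 50 µL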
A1 inh = caspase 3/7 activation in MEF A1-2A-BIM cells, primary screen, A1 inhibitor project, cell-based, luminescence, HTS | Caspase-Glo 3/7 luminescence, 3 h; percent of clofoctol response, vehicle zero | caspase activation, % (concentration not given with the values) | 330,000 tested, 0.066% active | AID 2462, 2010;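 active = over half of replicate activation scores above 10%, or exactly half above 10 with the replicate mean above 10; inconclusive = replicate mean below 10 yet half the replicates above 10; inactive = over half of replicates below 10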;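 also: wells of about 30 µL received 50 nL stock; many hits fall short of the cut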
Calb FLC = C. albicans growth inhibition with fluconazole, primary screen, CaCi-2 strain, Alamar Blue fluorescence; C. albicans CaCi-2 (fluconazole-resistant clinical isolate) + fluconazole, 48 h; growth inhibition, % (test concentration not listed); 300,000 tested, 0.57% active; AID 1979, 2009;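 active = most replicates above 75%; inconclusive = exactly half above 75%; inactive = most below 75%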;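 also: all wells also contain fluconazole at 8 µg/ml as a sub-toxic cotreatment; 0% = median of DMSO wells and 100% = median of geldanamycin control wells; wells of about 8 µL received 7.5 nL stock; the first replicate is given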
Beta2AR agonist = beta2AR agonists driving receptor internalization, primary screen, cell-based, FAP fluorogen, flow cytometry; Am2.2-beta2AR cells; reference of the scale not given here; response, % (no concentration beside the values); 340,000 tested, 0.43% active; AID 504454, 2011;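 active = response above a set limit, near 3 SD of response in nonfluorescent compounds, cut at about 42% in these data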;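 also: stock transfer was 100 nL into about 11 µL; a reference agonist was the positive control; negative values mostly stem from fluorescent compounds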
Target sequence (P07550 whole entry, looked up): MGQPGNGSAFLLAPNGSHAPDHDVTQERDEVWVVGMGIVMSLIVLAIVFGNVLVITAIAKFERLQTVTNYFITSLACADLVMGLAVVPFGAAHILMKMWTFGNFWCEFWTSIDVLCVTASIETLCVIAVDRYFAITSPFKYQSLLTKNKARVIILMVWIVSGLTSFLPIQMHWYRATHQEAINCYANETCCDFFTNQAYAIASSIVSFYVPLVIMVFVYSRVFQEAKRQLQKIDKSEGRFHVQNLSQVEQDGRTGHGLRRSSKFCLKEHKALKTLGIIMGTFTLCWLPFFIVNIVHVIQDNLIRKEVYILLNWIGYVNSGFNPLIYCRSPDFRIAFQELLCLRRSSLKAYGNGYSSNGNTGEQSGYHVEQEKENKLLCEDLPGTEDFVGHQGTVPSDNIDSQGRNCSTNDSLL
Ecoli rRNA inh OD600 = recorded beside Ecoli rRNA inh, whose call it bears; OD600 change, %; measured here: OD600 growth;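 optical density of the mix in the first replicate; 0 = DMSO median and -100 = no signal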
Ecoli rRNA inh RFP = further read-out of Ecoli rRNA inh, marked with its call; RFP signal change, %; measured here: RFP humanized mutant strains;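 first replicate; 0 = DMSO median and -100 = no signal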
Starred values were filed as active, the others as inactive; ? = inconclusive; . = no result given. Only part of the results is shown; rates above refer to the full screens.

SMILES	Beta apoptosis	Ecoli rRNA inh	Ecoli rRNA inh OD600	Ecoli rRNA inh RFP	ALR H2O2 inh	LANA-H2A inh	T cruzi inh	A1 inh	Calb FLC	Beta2AR agonist
O=C1/C(=C/c2cccs2)SC(=S)N1N1CCOCC1	3.8	13.4	3.0	4.5	-12.5	-0.9	-11.5	0.0	3.3	-9.4
O=C(COc1ccccc1F)NNC(=O)c1ccc2c(=O)n3c(nc2c1)CCC3	-1.5	-3.4	3.6	-1.3	.	.	2.8	0.0	0.8	1.2
CCOC(=O)N1CCN(S(=O)(=O)c2ccc(C(=O)Nc3nc4ccccc4s3)cc2)CC1	15.9	6.7	4.5	-5.0	-3.9	9.3	-6.8	-1.4	0.9	-8.9
COC(=O)C1=CN(Cc2ccc(OC)c(OC)c2)C=C(C(=O)OC)C1c1ccc(O)cc1	-0.7	-15.7	-6.2	-0.6	1.1	2.0	30.8	-0.8	-4.0	9.6
COC(=O)[C@H](C)NC(=O)Nc1ccc(OC)c(OC)c1	-0.1	.	.	.	-18.7	-2.5	-4.0	1.0	2.5	3.4
CC(=O)c1cnc2c(-c3ccccc3)c(C(F)(F)F)nn2c1C	-4.0	.	.	.	2.5	4.7	6.3	2.4	-4.1	-4.3
O=C(Cc1c(Cl)cccc1Cl)OCC(=O)N1CCc2ccccc2C1	-1.6	.	.	.	2.1	1.4	2.0	-1.1	0.1	2.9
C#CCOCCOCCOCCNc1nc(N2CCN(C(=O)CCCCCCCCCCNC(=O)[C@H]([C@@H](C)CC)n3cc(CCCCN=C(N)N)nn3)CC2)nc(N2CCN(C(=O)CCCCCCCCCCNC(=O)[C@H]([C@@H](C)CC)n3cc(CCCCN=C(N)N)nn3)CC2)n1	99.2*	.	.	.	-22.9	-0.5	.	-0.4	.	.
Cc1onc(-c2ccccc2)c1C(=O)N1CCCC(C(F)(F)F)C1 (centres undefined)	5.5	10.4	10.6	2.8	-3.7	-4.0	-7.6	-0.6	-1.1	1.6
COc1ccc(CCn2c(N)cc(=O)[nH]c2=S)cc1OC	.	.	.	.	20.8	-6.5	.	0.1	.	14.9
COc1ccc(CCNC(=O)c2coc(=O)c(Br)c2)cc1	2.8	6.8	9.0	-1.7	-11.3	3.2	-8.8	0.2	-5.6	.
CN(C(=O)Cn1nc(C(=O)O)c2ccccc2c1=O)c1ccccc1	-5.8	5.9	12.9	-1.7	0.8	8.0	-6.2	0.8	-6.5	-6.7
Cn1nccc1NC(=O)CC(CC(=O)O)c1ccccc1 (centres undefined)	1.0	6.4	4.3	-0.3	-0.8	-2.8	-3.4	1.2	2.7	-4.3
CC(C)C(=O)Nc1ccc(NC(=O)c2ccc([N+](=O)[O-])cc2Cl)cc1	-2.0	17.1	10.9	-1.2	.	3.8	10.1	0.5	2.7	-8.6
C/C(=N/NS(=O)(=O)c1cc(C)ccc1C)c1c[nH]c2ccccc12	1.2	-0.7	-4.4	2.6	0.0	-5.1	13.0	-0.2	23.3	-1.0
Cc1cccc(C)c1NC(=S)N(CCCN1CCOCC1)Cc1cccnc1	-1.8	8.0	8.0	0.2	.	-0.1	-9.0	0.2	-4.4	-6.5
CC(C)C(=O)Nc1nc2c(c(=O)[nH]1)CCCC2	-6.1	5.1	5.5	0.1	-6.4	-2.7	-1.5	-0.5	-1.6	-0.5
CC(C)NC(=O)C1(S(=O)(=O)c2ccccc2)CC=CC1	0.1	10.1	12.6	-0.7	.	-5.5	-3.9	1.0	-7.2	-3.9
CC(Sc1nnc(C2CC2)n1C1CC1)C(=O)Nc1ccc(C(N)=O)cc1 (centres undefined)	-1.0	-0.9	-5.0	-1.3	.	-1.9	.	-0.3	.	-6.4
COCC(=O)N1CCCC(CNS(=O)(=O)c2ccc(OC)cc2)C1 (centres undefined)	1.0	13.1	10.1	-1.3	-9.0	4.4	-5.5	0.3	-6.7	5.7
O=C(COC(=O)c1cc(Cl)ccc1O)c1ccc2c(c1)OCO2	-1.0	6.8	8.5	-1.3	-41.1	-1.2	-4.7	-3.0	-3.2	15.4
Cc1nc2c(C(=O)N3CCN(c4ccccn4)CC3)cnn2c(C)c1Cc1cccc(Cl)c1	2.5	.	.	.	-6.6	0.9	18.5	-0.1	14.2	-11.3
CC(=O)NC1=NN(C(C)=O)C(C)(CS(=O)(=O)c2ccc(C)c(C)c2)S1 (centres undefined)	-8.7	2.2	7.0	3.4	-2.7	1.2	0.3	-0.4	-8.1	-4.2
CC(C)n1cc(CN2CCCC(C(=O)Nc3ccccc3Oc3cccnc3)C2)cn1 (centres undefined)	2.9	4.6	0.2	-3.6	-3.6	2.9	42.3	0.2	-5.1	-4.6
Cc1c(Cl)cccc1NC(=O)C1=COCCO1	3.0	2.8	12.0	-0.2	-1.4	-8.7	4.5	-0.1	2.9	-0.6
The list goes on.
SMILES	Beta apoptosis	Ecoli rRNA inh	Ecoli rRNA inh OD600	Ecoli rRNA inh RFP	ALR H2O2 inh	LANA-H2A inh	T cruzi inh	A1 inh	Calb FLC	Beta2AR agonist
Cc1c(Cl)cccc1NC(=O)C1CCCCC1	-3.2	14.5	20.6	4.3	-4.5	1.9	-9.5	0.0	-4.7	.
Cc1cccn2c(=O)nc(SCC(=O)NCc3ccccc3Cl)nc12	0.0	1.7	4.5	-1.3	-1.6	-1.4	6.9	0.6	-9.1	1.7
COC(=O)Cc1c(C)c2ccc(OC3CCCCC3=O)cc2oc1=O (centres undefined)	-2.0	2.8	5.7	1.8	-5.1	3.5	-10.7	2.0	-1.4	1.3
CCN(Cc1nc2ccccc2c(=O)[nH]1)C(=O)c1ccc(C)c(NC(=O)c2ccco2)c1	-7.2	-3.3	-3.6	0.4	2.4	3.2	.	-0.2	.	-6.1
COc1ccc(/C=N/NC(=O)C2COc3ccccc3O2)cc1OC (centres undefined)	-1.5	4.2	0.9	2.7	-2.3	0.2	-13.8	-1.7	17.0	-1.9
O=C(COC(=O)c1cccc2ccccc12)NCCCc1ccccc1	-5.4	.	.	.	-6.6	-1.1	-3.1	0.2	-5.0	0.0
COc1ccc(C(F)(F)F)cc1NC(=O)c1nc2nc(C)cc(C(F)F)n2n1	-5.2	.	.	.	-8.0	4.9	-22.3	0.7	-0.5	-8.0
C=CC[C@@H](CC(=O)OC(C)(C)C)C(=O)OC[C@H]1CCCN1C(=O)[C@@H](CC=C)CC(=O)NCCO	-3.8	4.2	-3.3	-6.4	0.2	-2.4	.	-1.6	.	-1.4
CCOC(=O)c1ccc(-c2n[nH]c(=O)c3ccccc23)cc1	-2.1	.	.	.	4.3	7.6	4.5	0.0	1.6	4.1
COc1ccc(C(C(=O)NCc2ccc(F)cc2)N(C(=O)c2csnn2)C2CC2)cc1 (centres undefined)	-3.5	.	.	.	-0.1	4.0	8.2	-0.7	21.6	-4.2
Cc1c(C(=O)N2CCN(c3ccccn3)CC2)oc2ccccc12	3.6	-12.1	-15.2	-1.5	-14.4	-0.6	-9.7	0.4	9.3	8.7
NC(=O)c1ccsc1NC(=O)COC(=O)C1CC2CCCC(C1)C2=O (centres undefined)	-1.6	-4.0	3.9	0.3	-8.5	1.5	0.8	0.4	-0.1	-2.7
CCC(CCCO)CCC[C@H](C)CCC1OCCO1 (some centres undefined)	-5.2	-10.8	-3.7	-7.4	-4.6	-8.3	.	0.5	.	2.0
COc1ccc(CCNC(=O)c2nn(C)c3c2CS(=O)(=O)c2ccccc2-3)cc1OC	-0.7	.	.	.	-1.3	1.4	-11.5	-0.6	18.0	-0.7
COC(=O)CSc1ccc2nnc(-c3ccc(F)cc3)n2n1	-4.4	2.5	-7.6	1.5	-6.3	0.5	-3.0	-0.1	-12.6	0.1
COc1ccc(CCN(C)C(=O)/C=C/c2c(Cl)nc3ccccn23)cc1OC	-0.3	-6.9	-7.3	-4.0	0.1	1.3	1.1	1.1	-19.8	-17.7
Cc1cc(=O)oc(C)c1C(=O)N1CCCCC1	-0.1	.	.	.	4.1	-0.8	0.4	0.3	2.8	-5.0
C/C(=C\c1ccccc1)CN1CCN(Cc2ccc(C)o2)C(CCO)C1 (centres undefined)	-7.1	11.3	7.5	-1.8	0.6	9.4	11.6	0.5	-21.5	-3.2
COc1cccc(C(=O)NC2CC3CCC(C2)N3Cc2ccccc2)c1 (centres undefined)	-3.4	15.9	9.9	-0.5	-4.5	-2.6	2.0	0.4	3.4	-1.3
COc1cc(CN2CCN(Cc3ccc(C)cc3)C(CCO)C2)ccc1O (centres undefined)	-2.6	14.2	10.2	-0.4	12.3	4.8	-13.8	0.3	-24.6	2.1
O=C(NCc1ccccn1)c1nc(-c2cccs2)no1	-11.4	-0.3	1.7	-1.7	1.2	4.6	-16.3	-0.5	-6.8	-4.6
COc1cc(OC)c([N+](=O)[O-])cc1/C=N/NC(=O)c1ccncc1	-0.8	30.2	19.4	4.3	30.2	-1.1	-11.9	0.4	8.7	17.9
CCCCCc1nnc(NC(=O)C(=O)OCC)s1	-3.8	.	.	.	-5.7	2.8	-17.3	?	-0.1	8.5
Cc1nc2ccccn2c1C(=O)c1ccccc1	5.9	.	.	.	-20.7	0.0	-22.0	-0.3	-5.0	4.1
Cc1ccc(C(=O)O/N=C/c2c(C(F)(F)F)nn(C)c2Sc2ccc(Cl)cc2)cc1	7.7	.	.	.	9.5	-1.1	-13.7	0.8	2.1	-2.8
CC(C)(C)OC(=O)N/N=C\c1ccc([N+](=O)[O-])s1	1.5	-2.8	3.9	-2.2	-16.4	-0.1	57.3*	0.0	-5.7	-6.1
COc1ccc(N)c2c1OCCC2=O	0.1	.	.	.	34.3	9.0	4.8	1.7	9.3	1.7
O=C1CN(S(=O)(=O)c2ccccc2C(F)(F)F)CCN1	-5.9	-0.1	2.3	0.7	-3.2	-0.6	5.8	0.1	21.9	-2.0
Cc1cccc(C(C)C)c1NC(=O)CSc1ncnc2[nH]ncc12	-1.1	1.8	6.5	1.0	-1.2	-1.8	.	-0.2	.	-2.8

Structures shown so far that have a tert-butyl group, in the order listed:
SMILES	Beta apoptosis	Ecoli rRNA inh	Ecoli rRNA inh OD600	Ecoli rRNA inh RFP	ALR H2O2 inh	LANA-H2A inh	T cruzi inh	A1 inh	Calb FLC	Beta2AR agonist
C=CC[C@@H](CC(=O)OC(C)(C)C)C(=O)OC[C@H]1CCCN1C(=O)[C@@H](CC=C)CC(=O)NCCO	-3.8	4.2	-3.3	-6.4	0.2	-2.4	.	-1.6	.	-1.4
CC(C)(C)OC(=O)N/N=C\c1ccc([N+](=O)[O-])s1	1.5	-2.8	3.9	-2.2	-16.4	-0.1	57.3*	0.0	-5.7	-6.1

Screening data: PubChem, several laboratories
